# Rango dissoc inh: inhibition of RanGTP-driven Rango-importin beta dissociation; Potency, µM (series often up to 46.1 µM), inactives show at the top dose activity change, negative = inhibition; Biochemical FRET Rango-importin beta, RanGTP-induced dissociation; 0.071% of 340,000 active; active means falling FRET ratio curve, often poorly fitted, with flat reads before Ran was added; inconclusive means other falling curves, or compound fluorescence or quenching; inactive means flat or rising ratio curve;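 note: potency is the fitted concentration of half-maximal effect; % of control where 0% means no effect; nearly all actives have a fitted effect of over 45% in size; -100% = wells without RanGTP and RCC1; the record marks most hits as doubtful in a second field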
#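 Rango/importin beta premix (0.1/0.25 uM final), PBS + 1 mM DTT + 0.02% Tween-20 + 0.1% BSA; cpd 5 min RT; FRET pre-read; + RanGTP-RCC1 (0.6 uM Ran, 2 mM GTP, 0.2 uM RCC1); 45 min RT; FRET post-read, ex 430, em 486/530 nm.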
# Rango complex inh: Rango-importin beta binding inhibition; Q14974; Rango CFP/YFP FRET sensor + importin beta, 45 min; Potency, µM (series often up to 92.2 µM), for inactives: at the top dose inhibition of complex formation; 0.031% of 340,000 active; active = rising FRET ratio curve, often small or poorly fitted; inconclusive = mostly compound fluorescence or quenching in the first reads; inactive = flat curves in all reads;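 note: potency is the fitted concentration of half-maximal effect; 0% = DMSO wells and 100% = buffer wells lacking importin beta; nearly all actives have a fitted effect of over 15% in size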
#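 Inhibition scored from the CFP 486 nm/YFP 530 nm FRET ratio 45 min after adding 0.125 microM importin beta to 50 nM Rango biosensor preincubated 5 min with compound (room temperature, PBS with DTT, Tween-20, BSA). No-importin wells as positive control.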
# GLA inh pH 4.5: blocks human alpha-galactosidase A at pH 4.5. P06280. purified enzyme, 4-MU-alpha-Gal fluorescence, pH 4.5. activity change, negative = inhibition, % at 105 µM. 230,000 tested, under 10 active; inconclusive = small, poorly fitted or top-dose-only inhibition, or a rising curve; inactive = flat fitted curve, though single readings scatter; no compound was filed as active;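 note: 0% = full activity with enzyme and -100% = basal without enzyme; dose as in the result columns while the protocol names 77 µM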
# Target sequence (P06280 whole entry, looked up): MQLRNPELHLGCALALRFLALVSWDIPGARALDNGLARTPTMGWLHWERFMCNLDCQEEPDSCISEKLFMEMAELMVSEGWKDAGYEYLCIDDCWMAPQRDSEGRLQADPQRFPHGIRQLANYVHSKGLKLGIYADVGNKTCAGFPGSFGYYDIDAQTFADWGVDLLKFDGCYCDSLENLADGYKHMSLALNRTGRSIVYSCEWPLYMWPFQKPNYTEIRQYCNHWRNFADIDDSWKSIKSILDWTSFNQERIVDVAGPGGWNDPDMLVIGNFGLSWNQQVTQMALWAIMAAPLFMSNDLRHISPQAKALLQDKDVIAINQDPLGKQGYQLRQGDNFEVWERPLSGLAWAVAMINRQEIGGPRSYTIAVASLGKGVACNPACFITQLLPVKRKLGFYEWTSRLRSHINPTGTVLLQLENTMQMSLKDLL
# miR-21 FLuc: miR-21 reporter, rising signal | 340,000 tested, under 10 active | Potency, µM (highest dose often 38.3 µM), for the others: top-dose reporter change, positive = more light | HeLa miR-21 FLuc reporter, luciferase, 48 h; active = well fitted rising curve with a large enough effect; inconclusive = small, poorly fitted or top-dose-only effect; inactive = no such curve, though single readings can be large or run the other way;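 note: % of control where 0% means no effect; miR-21 action dims this reporter so a rising signal means less miR-21 action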
#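 HeLa cells endogenously expressing miR-21, stably carrying CMV-driven firefly luciferase with a downstream miR-21 binding site, 2000 cells/well. Titrations up to approximately 40 uM, 48 hours; luciferase luminescence read.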
# * = called active by the depositor; u = inconclusive; x = no result given; & = joins results of further samples. Not all compounds are listed; count on the stated rates, not on these rows.
No.	mol	Rango dissoc inh	Rango complex inh	GLA inh pH 4.5	miR-21 FLuc
1	CC[C@@H]1CN(C)[C@H]2Cc3c([nH]c4ccccc34)C(=O)C[C@@H]1[C@@H]2C(=O)OC	0.1%	-4.1%	x	x
2	O=C(NNc1ccc([N+](=O)[O-])cc1)c1ccccc1F	1.1%	3.6%	0.3	-12.7%
3	Cc1ccc(NC2CCCN(C(=O)c3c(C)noc3C)C2)cc1C (configuration not stated)	-6.8%	1.4%	x	u
4	Cc1ccc(CNC(=O)C(Cc2ccccc2)NS(=O)(=O)c2ccc3c(c2)CCC(=O)N3)cc1 (configuration not stated)	3.0%	-0.9%	2.4	7.0%
5	CCOC(=O)c1c(C)[nH]c2c1-c1ccccc1C(=O)C2=O	6.5%	4.4%	0.3	u
6	COc1cccc(-c2nc(CS(=O)(=O)CC(=O)N3CCc4ccccc4C3)c(C)o2)c1	7.2%	0.1%	0.4	3.9%
7	Cc1ccc(N2C(=O)CC(Sc3nc(-c4ccccc4)c4cc(Cl)ccc4n3)C2=O)c(C)c1 (configuration not stated)	-10.3%	-0.5%	4.9	-4.0%
8	CCCc1cc(=O)oc2c(C)c(OCC(=O)NC3CC(C)(C)NC(C)(C)C3)ccc12	-2.0%	0.7%	x	-9.7%
9	Cc1ccccc1CN(c1ccc(C(=O)Nc2ccccc2C(=O)NCc2ccco2)cc1)S(C)(=O)=O	23.2%	-0.7%	-9.8	12.2%
10	O=c1c2ccccc2sc2ccccc12	-16.9%	-7.4%	x	x
11	COc1ccc(-c2noc(CSc3nc4ccccc4c(=O)n3-c3ccccc3)n2)cc1	-6.8%	5.2%	-0.5	-0.9%
12	O=C1CC2(CON=C2c2ccc(F)cc2)C(=O)N1c1ccc(F)cc1 (configuration not stated)	2.2%	5.1%	-16.1	-2.7%
13	Cc1noc(C)c1COc1cccc(C(=O)N(C)Cc2nc3ccccc3c(=O)[nH]2)c1	19.5%	9.1%	x	x
14	O=C(Nc1ccc(Cl)cc1)OCCN1CCOCC1	-0.7%	-0.9%	x	x
15	COc1ccc(-n2nc3cc(C)c(N)c(Br)c3n2)cc1	-0.6%	-1.9%	-3.2	-78.4%
16	COc1ccc(CCNC(=O)CC2SC(=Nc3cc(C)cc(C)c3)NC2=O)cc1OC (configuration not stated)	21.5%	2.5%	0.0	-1.9%
17	Cc1ccc(C(=O)N2CCCCC2C(=O)O)o1 (configuration not stated)	-7.8%	-0.2%	-1.8	-0.2%
18	COc1ccc(CN2CCCC(C(=O)Nc3cccc(-n4cccn4)c3)C2)c(F)c1 (configuration not stated)	21.6%	-0.3%	x	18.8%
19	Nc1ccn(CC(=O)N2CCN(c3ccccn3)CC2)c(=O)n1	12.2%	-4.1%	x	x
20	O=C(NCc1cccnc1)c1ccc(NC(=O)c2ccc(Br)cc2)cc1	3.6%	3.2%	x	u
21	Cc1ccc(NC2=C(NC(=O)c3ccccc3)C(=O)c3ccccc3C2=O)cc1Cl	-3.6%	-4.7%	-5.5	12.0%
22	O=C(O)C1=C(C(=O)Nc2cccc(C(F)(F)F)c2)CCCC1	-7.0%	-0.6%	-3.8	0.6%
23	Cc1ccc(OCCC(=O)OCC(=O)Nc2cc(S(=O)(=O)N(C)C)ccc2C)cc1	-4.9%	-1.0%	-1.6	1.8%
24	COc1ccccc1N=c1oc2cc(O)ccc2cc1C(N)=O	u	u	u	-15.2%
25	CN(C)C(=O)c1ccc(NC(=O)c2cc(-n3cnnc3)ccc2Cl)cc1	14.0%	u	2.0	-2.2%
26	O=C(Nc1ccc2snnc2c1)N1CCSCC1	-10.5%	0.3%	3.6	-8.9%
27	O=C(CN1CCN(c2ccc(O)cc2)CC1)Nc1ccccc1C(=O)NCCc1ccccc1	-0.4%	-2.0%	x	x
28	Cc1cc(NC(=O)c2c(Cl)c(C)nn2C)no1	u	-2.8%	8.4	-1.7%
29	COC(=O)c1ccc(NC(=S)NN2CCOCC2)cc1	-12.6%	1.7%	-9.0	-28.3%
30	CCOC(=O)C1=C(OCc2ccc(Cl)cc2)C2C=C(C)C=CC2N=C1 (configuration not stated)	10.1%	-0.3%	8.9	11.9%
31	O=c1oc2ccccc2cc1-c1nnc(NCc2ccco2)s1	u	u	-4.6	-38.8%
32	CCC(C)(C)NC(=O)C(c1ccc(OC)cc1)N(C(=O)CCC(=O)Nc1cc(C)on1)c1ccc(OC)c(OC)c1 (configuration not stated)	7.1%	2.3%	x	-9.3%
33	CCCCCC(=O)N/N=C(\C)c1ccccn1	-0.8%	-0.3%	3.6	-4.7%
34	CCOc1ccc(S(N)(=O)=O)cc1-c1nc2c(C(C)(C)C)nn(C)c2c(=O)[nH]1	2.3%	-4.7%	-1.0	-10.5%
35	COc1ccc(S(=O)(=O)Nc2ccc(S(=O)(=O)N3CCOCC3)cc2)cc1C	0.6%	-3.5%	-27.0	-0.8%
36	COC(=O)CC1SC(=O)NC1=Nc1ccc(O)cc1 (configuration not stated)	-8.1%	3.4%	-7.1	0.9%
37	COc1ccc(C(=O)N=c2nc3ccccn3s2)cc1	-5.0%	-3.0%	1.3	-13.4%
38	O=C(Nc1ccncc1)C1CCN(S(=O)(=O)c2ccc(Cl)cc2)CC1	12.4%	-1.0%	x	x
39	COC(=O)c1nc2cc3c(cc2c(C)c1C(=O)OC)OCO3	-7.4%	0.2%	-1.8	-3.2%
40	COc1ccc(CNC(=O)Nc2cc(C)ccc2C)cc1	11.0%	0.3%	-1.3	0.4%
41	Cn1c(N)c(C(=O)COC(=O)c2ccc3c(c2)OCCO3)c(=O)n(C)c1=O	-17.9%	0.5%	-4.7	-3.0%
42	CNS(=O)(=O)c1ccc(C(=O)NCC(=O)NCC2COc3ccccc3O2)cc1 (configuration not stated)	-4.9%	-3.4%	x	x
43	CCN1CCC2(CC1)N=C(c1ccc(F)cc1)C(=S)N2C(=O)c1ccc(C)cc1	-3.2%	-0.1%	-1.8	0.4%
44	CCCCN1C(=O)CC(C(=O)O)C1c1ccc(OC)cc1 (configuration not stated)	-11.8%	3.6%	-7.3	3.4%
45	Cc1cccc(NC(=O)CSc2nc(-c3ccccc3)c(C#N)c(=O)[nH]2)c1C	-12.0%	4.5%	0.0	-5.0%
46	CCCCCCCC(=O)N/N=C/c1ccncc1	15.1%	-1.5%	1.0	0.0%
47	Cc1ccc(C(=O)N2CCN(C)CC2)cc1S(=O)(=O)N1CCOCC1	3.9%	0.2%	x	0.6%
48	O=C(Cc1c(O)c2ccccc2[nH]c1=O)NCc1ccccc1F	-2.4%	0.0%	2.7	-57.2%
49	CC12CN(Cc3ccccc3)CC(C)(CN(Cc3ccccc3)C1)C2=O	-12.0%	-0.7%	0.2	0.3%
50	COc1cc(OC)cc(C(=O)NCCCCCCNC(=O)c2cc(OC)cc(OC)c2)c1	-5.9%	0.9%	x	x

# The list continues.
No.	mol	Rango dissoc inh	Rango complex inh	GLA inh pH 4.5	miR-21 FLuc
51	COc1ccc(C(CNC(=O)c2cccc(S(=O)(=O)N3CCc4ccccc43)c2)N(C)C)cc1 (configuration not stated)	11.8%	0.0%	x	x
52	O=S(=O)(c1ccccc1)c1cnc(-c2ccccc2)nc1N1CCCCC1	8.0%	3.0%	-2.2	-14.5%
53	O=C(CSc1nc2ccccc2c(=O)[nH]1)Nc1ccc(S(=O)(=O)N2CCCC2)cc1	-12.3%	0.2%	-10.3	2.6%
54	O=S(=O)(N/N=C\c1cccnc1)c1ccccc1	u	2.9%	1.9	-2.4%
55	CSc1ncccc1C(=O)OCC(=O)c1ccc2c(c1)NC(=O)CO2	1.4%	-1.2%	3.0	-6.8%
56	O=C(N/N=C/c1ccc(Br)cc1)c1cc[n+](Cc2ccccc2)cc1	14.2%	4.4%	-1.6	-2.7%
57	COc1ccc(OCC(=O)Nc2nc3cc4c(cc3s2)OCCO4)cc1	-9.5%	3.0%	x	x
58	COc1c2c(cc3oc(=O)c4c5ccc(O)cc5oc4c13)OC(C)(C)CC2	-5.7%	-0.2%	x	x
59	CN1CCCN(C(=O)CNC(=O)c2ccccc2Br)CC1	-6.3%	-0.7%	x	x
60	C/C(=C(\C#N)C(=O)NCc1ccccc1)N(C)C	-3.7%	5.0%	-0.1	0.0%
61	Cc1c(C)c2c(OCC(=O)N[C@@H](Cc3ccccc3)C(=O)O)cc3c(c2oc1=O)CCC(C)(C)O3	-3.0%	1.8%	x	-1.7%
62	COc1ccc(C(=O)N(C)c2ccccc2C(=O)NCCc2ccccc2)cc1	3.9%	0.0%	x	28.3%
63	CC(=O)c1cccc(N(C(=O)Cn2nnc3ccccc32)C(C(=O)NC2CCCCC2)c2cn(C)nc2C)c1 (configuration not stated)	-2.7%	-1.4%	1.8	-2.3%
64	Cc1nnc2ccc(N3CCC4(CC3)OCCO4)nn12	1.7%	2.9%	-6.2	-8.7%
65	N#CC1(c2ccccc2)CCCN1C(=O)c1ccco1 (configuration not stated)	3.4%	-0.3%	-2.8	-0.3%
66	Cc1ccc(S(=O)(=O)NCC(c2ccco2)N2CCc3ccccc3C2)cc1 (configuration not stated)	15.3%	-1.8%	x	x
67	O=[N+]([O-])c1cc(C(F)(F)F)ccc1SCC(O)CO (configuration not stated)	-1.2%	0.7%	6.7	-11.1%
68	C[C@H](CO)N1C[C@H](C)[C@@H](CN(C)C(=O)NC2CCCCC2)Oc2ccc(NS(=O)(=O)c3cccs3)cc2C1=O	0.1%	1.1%	x	x
69	Cc1ccc(S(=O)(=O)N2CCN(c3c([N+](=O)[O-])cc(C(F)(F)F)cc3[N+](=O)[O-])CC2)cc1	6.7%	-4.6%	-2.7	-1.7%
70	CC(OC(=O)C1=COCCO1)C(=O)NC1(C#N)CCCCC1 (configuration not stated)	-7.4%	0.3%	x	x
71	Cc1ccccc1/C=N\NC(=O)c1ccc(Cn2cccn2)o1	-3.2%	-2.2%	7.1	-14.3%
72	COc1ccc(Nc2nc(NC(C)(C)C)nc(N3CCCC3)n2)c(OC)c1	-7.6%	-1.1%	-1.7	2.9%
73	N=C1C(c2nc3ccccc3[nH]2)=C(O)CN1c1ccccc1	-10.6%	-1.1%	4.8	-22.5%
74	O=C1CC(c2ccccc2)=Nc2ccc(Br)cc2N1	-12.9%	7.7%	-6.7	-2.1%
75	O=c1c2cc3c(=O)n(CC4CCCO4)c(=O)c3cc2c(=O)n1CC1CCCO1 (configuration not stated)	-6.0%	-1.1%	-3.4	-1.1%
76	CC(C)N=C(NS(=O)(=O)c1ccccc1)C(Cl)(Cl)Cl	-4.6%	2.8%	3.0	u
77	Cc1[nH]c2ccccc2c(=O)c1C(=O)/C=C/c1ccccc1	3.5%	0.8%	-1.5	u
78	CC(=O)Nc1ccc(C2=NN(c3ccccc3)C(c3cccs3)C2)cc1 (configuration not stated)	u	u	25.3	-19.9%
79	CC(C)(C)OC(=O)C[C@H]1C/C=C\C[C@@H](CC(=O)N(CCO)Cc2ccccc2)C(=O)NCCOC1=O	-8.2%	-0.3%	x	x
80	Cc1noc(C)c1COC(=O)c1ccc(N(C)C)cc1	-13.0%	2.9%	3.3	-35.5%
81	O=C(CSCc1ccc(F)cc1)N1CCOCC1	-8.7%	-4.8%	-2.2	-49.6%
82	CC(=O)c1cccc(NC(=O)C2COc3ccccc3O2)c1 (configuration not stated)	1.4%	1.9%	x	-54.8%
83	CC(=O)Nc1ccc(Oc2nc(C)cc(C)n2)cc1	-2.8%	-0.1%	-2.6	-7.4%
84	CC(C)(C)C(=O)N1CCN(c2ccnc3cc(Cl)ccc23)CC1	8.1%	-0.3%	x	15.7%
85	COc1cccc(NC(=O)CSc2nc(O)c(C)c(=O)n2-c2ccc(C)cc2)c1	-2.2%	2.4%	x	-2.0%
86	COc1ccc(NC(=O)C2CCCN(S(=O)(=O)c3c(C)[nH]c(=O)[nH]c3=O)C2)cc1 (configuration not stated)	-1.1%	-5.1%	-0.2	1.5%&1.3%
87	CC(C)(C)NC(=O)[C@@H]1CN(Cc2cccnc2)CCN1C[C@@H](O)C[C@@H](Cc1ccccc1)C(=O)N[C@H]1c2ccccc2C[C@H]1O	1.5%	2.2%	x	x
88	COc1ccc(C2C3=C(CCCC3=O)Nc3nc(SCc4ccccc4)nn32)cc1OC (configuration not stated)	-7.5%	8.1%	19.7	-0.8%

# Screens from PubChem BioAssay.
